From PubChem
MgrA-DNA mod: modulators of Staphylococcus aureus MgrA DNA binding; inhibition, %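 (about 10 µg/mL by stock and volumes)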; fluorescence polarization; hit rate 0.13% among 84,000;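 active = above 50% in either of two replicates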;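 note: 0% = protein plus DNA without compound and 100% = DNA alone without protein; higher means less MgrA bound to DNA so lower polarization; one replicate is shown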
Sa helicase inh: blocks Staphylococcus aureus DNA helicase. purified S. aureus helicase, fluorescence unwinding assay; about half of the hits fall short of the stated cut. inhibition, %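 (tested at about 80 µM)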. hit rate 0.05% among 120,000;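 active = both duplicates at 50% or more, or one of them with a favoured structure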;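 note: 0% = mean of negative control wells and 100% = mean of positive control wells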
* marks the source's active call; other numbers are inactive results; · = not tested or not shown. Not all compounds are listed. The share of hits here may be higher or lower than overall.

SMILES	MgrA-DNA mod	Sa helicase inh
O=C(COC(=O)CCC1CCCC1)NC1CCCCCC1	·	-15.0
N#CCC(=O)NCc1ccccn1	3.8	·
CSc1cccc(NC(=O)c2cnccn2)c1	0.4	·
COc1ccc(CCN2C(=O)CCC(C(=O)O)C2c2cc(OC)c(OC)c(OC)c2)cc1OC (stereo unspecified)	2.5	·
Cc1cccc(N(C)S(=O)(=O)c2cc(Br)cnc2N)c1	·	-9.0
CNC(=O)c1cccc(Oc2cccc(Cl)n2)c1	-1.2	12.0
C/C(N)=C(/C#N)C(=O)CSc1ccc2c(c1)OCCO2	·	-17.0
CCc1ccc(C(=O)NCc2cccs2)cc1	·	4.0
Fc1ccc(NC(=S)N2CCCCC2)cc1	1.1	9.0
O=C(CSc1ccc(Br)cc1)N1CCN(C(=O)c2ccco2)CC1	2.0	-12.0
O=C(CSc1cccc[n+]1[O-])NC(=O)NCc1ccccc1	·	3.0
S=c1[nH]nc(CCCOc2ccc(Cl)cc2Cl)o1	14.6	16.0
Cc1cc(C)c2ccc(NN)nc2c1O	6.6	0.0
O=C(Cc1ccc2c(c1)OCCO2)N/N=C/c1ccc[nH]1	·	-28.0
COc1cccc(C(=O)COc2nc(-c3cccs3)cc(-c3ccco3)c2C#N)c1	·	-40.0
CSc1nsc(SC)c1C(=O)N1CCSCC1	-0.7	·
CC(C)[C@H](NC(=O)c1ccccc1)C(=O)N1CCc2ccccc21	·	-1.0
Cc1ccc(N2C3CCCCCN3CC2(O)c2ccc(Cl)cc2)cc1 (stereo unspecified)	·	-4.0
c1cc(CN2CCCCCCC2)cs1	-1.0	·
Cc1ccc(/C(C#N)=C2C=C(Br)/C(=N/O)C=C\2Cl)cc1	-1.5	·
Cc1ccc2c(c1)c1c3n2CCN(C(N)=O)C3CCC1 (stereo unspecified)	·	15.0
CCOC(=O)Cc1nn(Cc2ccccc2)c(=O)c2ccccc12	-1.6	7.0
O=C(CSc1ncnc2c1sc1ccccc12)NC1CCCCC1	-2.8	9.0
O=C(O)c1cccnc1SCC(=O)N1c2ccccc2CCc2ccccc21	5.0	13.0
Cc1ccc(C(O)COC2=NCNc3cc(Cl)ccc32)cc1 (stereo unspecified)	2.4	·

Single records (already shown). Order of screens: MgrA-DNA mod	Sa helicase inh
Listed for N#CCC(=O)NCc1ccccn1 → 3.8	·
Listed for O=C(COC(=O)CCC1CCCC1)NC1CCCCCC1 → ·	-15.0
Listed for COc1cccc(C(=O)COc2nc(-c3cccs3)cc(-c3ccco3)c2C#N)c1 → ·	-40.0
Listed for Cc1cc(C)c2ccc(NN)nc2c1O → 6.6	0.0
Listed for Cc1ccc(N2C3CCCCCN3CC2(O)c2ccc(Cl)cc2)cc1 (stereo unspecified) → ·	-4.0

The list continues.
SMILES	MgrA-DNA mod	Sa helicase inh
COC(=O)C(C)N(c1ccc(C)cc1)S(C)(=O)=O (stereo unspecified)	3.0	8.0
Nc1nc2n(n1)C(=O)CC(c1ccccc1)N2 (stereo unspecified)	·	7.0
Cc1ccccc1-c1nc(CSc2nc3c(c(=O)[nH]2)CCC3)c(C)o1	-2.1	4.0
O=C(Cn1nc(-c2ccco2)ccc1=O)NCCc1ccccc1	·	8.0
NC(=S)N/N=C/c1ccc(N2CCOCC2)s1	·	10.0
Cc1ccc(C(=O)Nc2ccc3c(c2)OCO3)cc1	0.5	-5.0
CN(C)/C=C/c1ccc([N+](=O)[O-])cc1[N+](=O)[O-]	0.7	·
CCOc1cc2c3c(c1)C1(Nc4ccccc4CO1)C(=O)N3C(C)(C)CC2C (stereo unspecified)	-1.1	7.0
CSc1nc(-c2cccnc2)nc(-c2ccccc2)c1C#N	-1.1	·
O=[N+]([O-])c1ccccc1N1CCOCC1	2.6	·
Cc1cccc2c(=O)c(N)c[nH]c12	0.8	-6.0
N#Cc1c(-c2ccccc2)c(-c2ccccc2)nn(CC(=O)NN)c1=O	-3.1	·
CNC(=O)CN(C1CCCCC1)S(=O)(=O)c1ccc(C)cc1	1.2	-3.0
Cn1/c(=N/N=C2\CC3CC=CC23)sc2ccccc21 (stereo unspecified)	·	11.0
O=S(=O)(Cc1noc(CSc2ccc(Cl)cc2)n1)c1ccccn1	-1.2	·
Nc1c(C(=O)NCC2CCCO2)c2nc3ccccc3nc2n1/N=C/c1ccccn1 (stereo unspecified)	·	0.0
Cc1ccc(OCc2nn(C)c3ccccc23)cc1	-1.4	1.0
COC(=O)c1ccc(NC(=O)C(C)Sc2nc3c(c(=O)[nH]2)CCCC3)cc1 (stereo unspecified)	-1.9	1.0
Clc1ccc(-n2ncnc2-c2ccc3c(c2)OCO3)cc1	2.2	-15.0
CCOC(=O)C1CCC(C(=O)OCC)N1C(=O)Nc1ccc(Cl)cc1 (stereo unspecified)	1.6	·
CCOC(=O)CNc1ccc(OC(F)(F)F)cc1	0.1	·
O=C(CSc1nnc(-c2cccs2)n1-c1ccccc1)NCC1COc2ccccc2O1 (stereo unspecified)	·	2.0
CC(=O)N1CCN(C2=NC(=O)/C(=C\c3ccc(-c4ccc(Cl)c(Cl)c4)o3)S2)CC1	·	-17.0
N#C/C(=C(/O)C1CC1)c1nc2ccccc2s1	-0.2	8.0
CN(C)Cc1nc2ccccc2c(=O)n1Cc1nc(C(C)(C)C)cs1	·	-19.0

Reprinted at random: 4 compounds from above, in no set order.
SMILES	MgrA-DNA mod	Sa helicase inh
Cc1cccc2c(=O)c(N)c[nH]c12	0.8	-6.0
CC(=O)N1CCN(C2=NC(=O)/C(=C\c3ccc(-c4ccc(Cl)c(Cl)c4)o3)S2)CC1	·	-17.0
COC(=O)C(C)N(c1ccc(C)cc1)S(C)(=O)=O (stereo unspecified)	3.0	8.0
O=C(Cn1nc(-c2ccco2)ccc1=O)NCCc1ccccc1	·	8.0

Additional compounds.
SMILES	MgrA-DNA mod	Sa helicase inh
CCn1cc(CCC(=O)O)c2ccccc21	·	11.0
COC(=O)C1(C)NC2(CCCCC2)Cc2ccccc21 (stereo unspecified)	-1.9	7.0
Cc1cc(=O)[nH]c(NC(=O)C(C)(C)C)n1	0.6	·
Cc1cc2nc(CN3CCCCC3)cc(=O)n2o1	·	11.0
CCC(Sc1nc2c(c(=O)n1-c1ccccc1)SCC2)C(=O)OC (stereo unspecified)	·	-1.0
Cn1cccc1C(=O)NC(=O)CSc1nc2ccccc2s1	·	2.0
O=C(NCCc1ccccc1)C1CCCC1	-0.2	-5.0
CCCCN1C(=O)Cc2c1nc(N)c1c(N)nc(N(CCC)CCC)c(C#N)c21	·	26.0
O=C(NCCCn1ccnc1)c1noc2c1CCCC2	0.4	8.0
CN1CCN(c2ccccc2NC(=O)Cc2cn(C)c3ccccc23)CC1	-1.0	13.0
O=C(Cn1c(=O)n(CC2CS2)c2ccccc21)c1ccccc1 (stereo unspecified)	3.0	27.0
CCOC(=O)c1cnc2[nH]c3ccccc3n2c1=O	1.4	6.0
CSc1ccccc1NC(=O)CN1CC(C)OC(C)C1 (stereo unspecified)	·	-15.0
COc1ccc(CNCCNC(=O)c2ccncc2)c(OC)c1OC	4.2	6.0
CCn1c(SCC(=O)N(C2CCCCC2)C2CCCCC2)nnc1-c1cc2cccc(OC)c2o1	0.8	12.0
Cc1ccc2nc(NC(=O)C3CCCC3)sc2c1	-0.2	2.0
COc1ccc(CCNC(=O)c2ccc(CSc3ccc(Cl)cc3)o2)cc1OC	-1.6	·
CN(Cc1ccccc1)C(=O)CCCn1c(=O)c2cccn2c2cccnc21	-0.6	0.0
Cc1cc(N2CCCC2)nc2ccc(NC(=S)NCCN3CCOCC3)cc12	-1.1	12.0
CSc1ccccc1NC(=O)C(C)NS(=O)(=O)c1ccc(C)cc1 (stereo unspecified)	-0.5	3.0
COC(=O)NCCCN1CCCC1=O	-0.8	12.0
Cc1ccc(-c2cc(C(=O)Nc3nccs3)c3ccccc3n2)o1	·	8.0
Cn1cccc1Cc1nnc(SCC(=O)NC2CCCCC2)n1CCc1ccccc1	-2.0	3.0
O=C(NCc1c(Cl)cccc1Oc1ccccc1)c1cccs1	-1.3	·
Cc1ccc(S(=O)(=O)NC2=NCN(c3ccc(Cl)cc3)CN2)cc1	-3.0	17.0

2 of the compounds above, in CSV form.
molecule,MgrA-DNA mod,Sa helicase inh
CCC(Sc1nc2c(c(=O)n1-c1ccccc1)SCC2)C(=O)OC (stereo unspecified),·,-1.0
Cn1cccc1C(=O)NC(=O)CSc1nc2ccccc2s1,·,2.0

(next part)
SMILES	MgrA-DNA mod	Sa helicase inh
CCCc1ccc(S(=O)(=O)Nc2ccc(C)c(NS(C)(=O)=O)c2)cc1	-1.4	·
c1ccc(CN(Cc2ccccc2)c2ccccc2)cc1	0.0	·
c1ccc(CN2CCC(Nc3ncnc4c3oc3ccccc34)CC2)cc1	·	-16.0
COc1cccc(C(=O)Nc2c3c(nn2-c2ccc(F)cc2)CSC3)c1OC	·	-7.0
COc1ccc(/C=C2/SC(=O)N(CNc3ccccc3Br)C2=O)cc1	0.1	·
COc1cc(C(=O)O)ccn1	-4.2	5.0
CC(C)(CO)NS(=O)(=O)c1ccc2c(c1)oc(=O)c1cc(S(=O)(=O)NC(C)(C)CO)ccc12	0.7	-13.0
Cc1cc(C)n(-c2nc(-c3ccccc3)nc3c2COC(C)(C)C3)n1	-1.2	2.0
O=C(Cn1nnc(N2CCOCC2)n1)c1ccccc1	-0.9	·
Cn1c(O)c(/C=N/N(c2ccccc2)c2ccccc2)c2ccccc21	1.4	16.0
Cn1cncc1S(=O)(=O)/C(C#N)=N/Nc1ccc(OC(F)(F)F)cc1	0.5	·
CC1CCCCC1N1CCC(CNC(=S)Nc2cccc(Cl)c2)C1 (stereo unspecified)	-0.6	8.0
CC(C)Oc1ccc2ccc(=O)oc2c1	15.6	2.0
O=C(c1cc2nc3c(c(C(F)(F)F)n2n1)CCc1ccccc1-3)N1CCCC1	-2.2	5.0
O=C(CN1C(=O)CSC1=O)Nc1cccc(Cl)c1	2.0	0.0
CCC(CC)NC(=O)c1ccc(OC)cc1OC	-6.3	-1.0
O=C(/C=C/c1cn(-c2ccccc2)nc1-c1ccccc1)OCC(=O)N1CCN(C(=O)c2ccco2)CC1	·	-12.0
COc1cccc(NC(C)=O)c1	-2.8	·
CC(=O)NCc1ccc(C(=O)CSc2n[nH]c(-c3cccs3)n2)s1	·	5.0
O=C(COC(=O)c1ccc(I)cc1)NC1CCCCC1	-2.0	13.0
O=C(c1ccc([N+](=O)[O-])cc1)N1CCNCC1	-2.3	·
O=c1oc(-c2ccc(Br)cc2)nc2scc(-c3ccc(-c4ccccc4)cc3)c12	-2.1	·
Cc1ccc(CNC(=O)CSc2nc3ccccc3c(=O)n2-c2ccccc2)cc1	0.8	-9.0
CCC1(CC)NC(=S)N(Nc2ccccc2)C1=O	2.1	10.0
O=C1c2ccccc2C(=O)C1c1ccncc1	·	27.0
(list continues)
SMILES	MgrA-DNA mod	Sa helicase inh
O=C(Nc1ccccc1)c1cccc(-c2nnc(-c3ccccc3)o2)c1	-1.6	4.0
CCC1CCCCN1C(=O)c1cnn2cccnc12 (stereo unspecified)	6.8	6.0
NC(N)=N/C(N)=N/c1nc(-c2ccccc2)cs1	-0.7	·
FC(F)(F)c1cc(-c2ccco2)nc(-n2cccn2)n1	3.8	15.0
Cc1nn(CC(=O)N(C)C)c(C)c1S(=O)(=O)N(C)C	·	5.0
CCOc1ccccc1/C=C(\C#N)c1nc(-c2cc3cc(Br)ccc3oc2=O)cs1	-1.3	·
CCCCCCC1C(C#N)=C(N)OC2=C1C(=O)CC(C)(C)C2 (stereo unspecified)	·	20.0
CC1CCN(C(=O)CCn2ccc3cc(S(=O)(=O)N4CCCCC4)ccc32)CC1	·	-25.0
COc1cc(OC)c(OC)cc1CNc1ccc2[nH]c(=O)[nH]c2c1	·	-17.0
OCc1nc(-c2ccccc2)cs1	-3.0	·
Cc1ccc(-n2sc3ccccc3c2=O)cc1	5.0	2.0
Cn1c(=O)n(C)c2cc(CN3C(=O)OC(C)(C)C3(C)O)ccc21 (stereo unspecified)	·	5.0
O=C1CSc2ccc(C(=O)N3CCN(c4ccc(F)cc4)CC3)cc2N1	·	25.0
O=C(CSc1nc2c(c(=O)n1CCc1ccccc1)SCC2)N1CCCC1	·	6.0
Cc1cccc(C(=O)N=Nc2c(O)[nH]c3ccc(C)cc23)c1	0.8	5.0
O=S(=O)(Nc1ccccc1)c1ccc(Cl)cc1	·	5.0
O=C(c1cnn(C(=S)Nc2ccccc2)c1)c1cc(Cl)ccc1O	2.8	18.0
O=C(CCSc1nnc2ccccn12)Nc1ccc(F)cc1	·	2.0
Cc1nc2ccc(NS(=O)(=O)c3ccc(F)cc3)cc2s1	·	-9.0
CCOC(=O)c1oc2ccccc2c1COC(=O)CCC(=O)c1ccccc1	·	-1.0
Cc1cc(C)n(-c2ccc(CC#N)cc2)n1	·	7.0
Cc1ccc2nc(NS(C)(=O)=O)sc2c1	0.6	13.0
CCN(CC)S(=O)(=O)c1cc(C(=O)O)ccc1OC	·	-33.0
CCCc1nnc(SCc2nnc(-c3ccccc3)o2)o1	3.3	8.0
N/C(CCS(=O)(=O)c1ccc(Cl)cc1)=N\O	-0.4	·
Next section:
SMILES	MgrA-DNA mod	Sa helicase inh
N#CC(C#N)C(CC(=O)c1cccs1)c1ccccc1 (stereo unspecified)	2.3	-8.0
COc1cccc(-c2cc(C(=O)NC3CC3)[nH]n2)c1	-1.0	16.0
C(=N/n1cnnc1)/c1ccc(N2CCCCC2)cc1	1.5	-13.0
CCOc1ccc(C(=O)Nc2c(N)nc(SC)[nH]c2=O)cc1	·	4.0
O=C(Cn1c(=O)c2cccn2c2ccccc21)NC1CCCc2ccccc21 (stereo unspecified)	0.2	-8.0
O=C(NC(CO)C(=O)O)c1cncc(O)c1 (stereo unspecified)	0.0	3.0
CCn1nc(-c2cccc(Br)c2)ccc1=O	·	6.0
O=C(NCC1CCCO1)c1ccc(CS(=O)(=O)c2cccc(C(F)(F)F)c2)o1 (stereo unspecified)	·	-2.0
CCN1CCN(C(=O)c2cn(-c3ccccc3)nc2-c2ccccc2)CC1	·	7.0
N#CCCN(C(=S)Nc1ccccc1Cl)C1CCCCC1	3.1	·
NC(=O)c1ccc(C(F)(F)F)cn1	·	9.0
O=S(=O)(NNc1nccc(-c2cccnc2)n1)c1cccc(C(F)(F)F)c1	·	20.0
